RVFV N-RNA inh = inhibitors of Rift Valley Fever Virus nucleocapsid-RNA interaction. P21700. RVFV N-RNA binding, fluorescence polarization; stronger effect = lower value. % bound, % (no concentration beside the values). hit rate 0.1% among 20,000. AID 651828;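 active = between 0 and 58% in either replicate with normal brightness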;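 note: 100 nL library stock added to about 12 µL; 100% = protein and probe without compound and 0% = probe alone; numbers are from one replicate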
Target sequence (P21700 whole entry, looked up): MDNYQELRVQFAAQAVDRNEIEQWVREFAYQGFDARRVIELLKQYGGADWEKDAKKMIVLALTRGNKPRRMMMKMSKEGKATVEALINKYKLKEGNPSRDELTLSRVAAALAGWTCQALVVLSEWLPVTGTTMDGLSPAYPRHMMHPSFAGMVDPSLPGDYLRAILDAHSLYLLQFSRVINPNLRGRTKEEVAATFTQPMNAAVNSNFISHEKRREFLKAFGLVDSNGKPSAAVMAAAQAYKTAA
* marks the source's active call; other numbers are inactive results; & = joins results of further samples. Some of the compounds tested (hit frequency here may not be typical).

SMILES | RVFV N-RNA inh
N#C/C(=N/Nc1ccc2c(c1)OCO2)C(=O)N1CCCC1 | 103
CN1C2CCC1CC(OC(=O)c1cc(Cl)cc(Cl)c1)C2 (centres undefined) | 93
CCN(CC)CCNC(=O)c1ccc(N)cc1 | 96&109&96
COc1cc(CO)ccc1OCc1ccc(Cl)cc1 | 98
CC(C)(C)NC(=O)Cn1nnc(-c2cccs2)n1 | 93
Cc1nc(-c2cccs2)sc1NC(=O)Nc1ccc(Cl)cc1 | 103
CCN(C(=O)c1ccco1)C1C2CC3CC(C2)CC1C3 (centres undefined) | 98
CC(=O)Oc1cccc2ccc(C#N)nc12 | 99
O=S(=O)(CCN1CCOCC1)c1ccc(F)cc1 | 99
O=C1CC(c2ccc(F)cc2)CC2=C1C(c1ccccc1)N=C(Nc1nc3ccccc3o1)N2 (centres undefined) | 96
CC1=C(C#N)C(c2ccc3c(c2)OCO3)C2=C(CCCC2=O)N1 (centres undefined) | 96
COc1ccc(NC(=O)NC2CCCc3ccccc32)cc1OC (centres undefined) | 92
Cn1c(=O)c(-c2noc(-c3ccc(Cl)cc3)n2)cn(-c2ccccc2)c1=O | 93
CC(=O)Nc1ccc(NC(=O)c2cc(=O)[nH]c3ccccc23)cc1 | 94
CCc1ccc(C(=S)N2CCOCC2)cc1 | 96
Cc1cccc2c(N=O)c(O)n(CCc3ccccc3)c12 | 103
Cc1c(-c2nnc(Nc3ccccc3)s2)sc2nc3n(c(=O)c12)CCC3 | 95
Cc1noc(C)c1S(=O)(=O)N1CCCC1 | 90
COc1ccccc1N1CCN(C(=O)COc2c(C)cccc2C)CC1 | 92
Cc1nn(-c2ccccc2)nc1C(=O)c1c(C)[nH]n(-c2ccccc2)c1=O | 101
CCN1CCC(NC2CCC(O)CC2)CC1 (centres undefined) | 90
Cc1nc(N)sc1-c1nnc(SC/C=C/c2ccccc2)n1C | 93
COc1ccc(/C=N/N=C/c2ccc(OC)c(O)c2)cc1O | 92
C1CCCC(NCCCN2CCOCC2)CC1 | 89
COc1cccc(OC)c1C(=O)Nc1cc(Cl)ccc1N1CCOCC1 | 101

(listing goes on)
SMILES | RVFV N-RNA inh
Nc1scc[n+]1CC(=O)[O-] | 89
CCNc1nc(N)nc(Oc2ccc(OCC)nn2)n1 | 99
C=CCC1S/C(=N/N=C/c2ccccc2)NC1=O (centres undefined) | 94
CC(C)NC(=O)COc1coc(CN2CCN(C(=O)c3ccco3)CC2)cc1=O | 102
CSc1ccc(-c2nc3ccccc3c(=O)[nH]2)cc1 | 95
Cc1cccc(C2CN(C)CCc3c2cc(O)c(O)c3Cl)c1 (centres undefined) | 95
Cc1ccc(S(=O)(=O)NCCCO)cc1C(=O)O | 102
Cc1n[nH]c(=O)c2noc(/C=C/c3ccc(Cl)c(Cl)c3)c12 | 91
FC(F)(F)c1nnc2ccc(N3CCCCC3)nn12 | 100
Cc1cc(S(=O)(=O)NCC(C)C)ccc1OCC(=O)N1CCN(Cc2ccc3c(c2)OCO3)CC1 | 87
CCN1CCN(C(c2cccnc2)c2c(NC(C)=O)sc3c2CCCC3)CC1 (centres undefined) | 109
COc1ccc2nc(Nc3nnc(-c4cccs4)o3)sc2c1 | 91
CCN(C(=O)c1cccs1)C1CCS(=O)(=O)C1 (centres undefined) | 96
CC(C)n1c(-c2cccc(Br)c2)nc2ccccc21 | 93
O=C(COc1ccc2c(c1)OCO2)Nc1ccccc1C(F)(F)F | 97
CNC(=S)N1CC2CC(C1)c1cccc(=O)n1C2 (centres undefined) | 97
CCc1ccc(/C(C)=N/N=C(N)N)cc1 | 95
CC1=NN(c2ccccc2)C(=O)/C1=C\c1ccc[nH]1 | 92
CC(C)(C)N1NC2(CCCCC2)NC1=O | 89
N#Cc1c(Cl)cccc1I | 98
CCN1C[C@@]2(COC)C3[C@@H](OC)C4[C@@H]1C3([C@@H]1C[C@@]3(O)[C@H](OC(=O)c5ccccc5)[C@@H]1[C@]4(OC(C)=O)[C@@H](O)[C@@H]3OC)[C@H](OC)C[C@H]2O | 97
CNc1ccc2oc(C[C@H]3O[C@@]4(CC[C@H]3C)O[C@H]([C@H](C)C(=O)c3ccc[nH]3)[C@H](C)C[C@H]4C)nc2c1C(=O)O | 95
Cc1cc(C)cc(NC(=O)c2ocnc2C)c1 | 93
c1ccc(NN=C2CCCCCCC2)cc1 | 93
C=CCC(CC=C)(C(N)=O)c1ccccc1 | 96

Later entries.
SMILES | RVFV N-RNA inh
CCO/C=N/c1oc(-c2ccccc2)nc1C#N | 99
Cc1cc(NN)nc(-c2ccccc2O)n1 | 91
C#C[C@]1(O)CC[C@H]2[C@@H]3CCC4=Cc5oncc5CC4(C)[C@H]3CCC21C (some centres undefined) | 92
NNC(=O)C1CCN(c2ncc(C(F)(F)F)cc2Cl)CC1 | 95
COC(=O)c1ccc(OCC(=O)c2cccc(OC)c2)cc1 | 91
Cn1c(=O)n(Cc2ccccc2F)c(=O)c2c1nc1n2CCCN1Cc1ccco1 | 92
NC[C@@H]1O[C@H](O[C@H]2[C@@H](O)[C@H](O[C@@H]3[C@@H](O)[C@H](N)C[C@H](N)[C@H]3O[C@H]3O[C@H](CN)[C@@H](O)[C@H](O)[C@H]3N)O[C@@H]2CO)[C@H](N)[C@@H](O)[C@@H]1O | 100
COc1cc(C)c(/C=C/C(C)=C/C=C/C(C)=C/C(=O)O)c(C)c1C | 90
CC(=O)N(CCP(=O)(c1ccccc1)c1ccccc1)Cc1ccco1 | 97
COc1ccc(CCC(=O)NCCc2cn3c(C)csc3n2)cc1 | 100
O=C(NCCSc1ccccc1)c1cc2ccccc2o1 | 101
COc1ccc(N2CC(NC(=O)N(CC(C)C)CC(C)C)CC2=O)cc1 (centres undefined) | 106
Cc1ccc(S(=O)(=O)NCC2COC3(CCCCC3)O2)cc1 (centres undefined) | 89
Cn1c(C2CC(=O)N(c3cccc4ccccc34)C2)nc2ccccc21 (centres undefined) | 105
O=C1Nc2ccccc2C1=NCCCN=C1C(=O)Nc2ccccc21 | 99
CC1CN(C(=S)NCc2ccco2)CC(C)O1 (centres undefined) | 98
CCN(Cc1ccccc1)C(=O)Nc1c[nH]c2ccccc12 | 104
Cc1cc(C)nc(SCc2nnc(Nc3ccc(S(N)(=O)=O)cc3)s2)n1 | 101
COC(=O)C(NC(=O)CC12CC3CC(CC(C3)C1)C2)C(C)C (centres undefined) | 97
O=C(OCc1ccco1)c1cnc(Nc2ccc(OC(F)(F)F)cc2)nc1C(F)(F)F | 96
COc1ccc(C(=O)N(C)C2CCCCC2)cc1 | 93
O=C(/C=C/c1cccs1)Nc1nnc(-c2cccs2)o1 | 93
Cn1c(Cn2c(=O)sc3ccccc32)nnc1SCc1ccc(Cl)cc1 | 94
CC1/C=C/C=C/C=C/C=C/C=C/C=C/C=C/C(O[C@@H]2O[C@H](C)[C@H](O)[C@@H](O)[C@@H]2N)CC(O)C(C(=O)O)C(O)CC(=O)CC(O)CC(O)CC(O)CC(=O)CCCC(=O)CC(=O)OC1C(C)CC(C)C(O)CC(=O)c1ccc(N)cc1 (some centres undefined) | 101
Cn1c(=NC(=O)C2CCCCC2)sc2cc(F)ccc21 | 91

Next section.
SMILES | RVFV N-RNA inh
Cn1ncc2c(N3CCCCC3)nc(N3CCCC3)nc21 | 110
NC(=O)COc1coc(CN2CCc3ccccc3C2)cc1=O | 107
Cc1ccc(/C=C2/N=C(c3ccccc3)NNC2=O)cc1 | 102
CC(C)(C)N(Cc1ccccc1)C(=O)c1ccco1 | 99
S=c1[nH]nc(-c2ccncc2)n1-c1ccc2c(c1)OCO2 | 101
Nc1nncn1C(=O)CCCOc1ccccc1 | 105
NN1C(=O)c2ccccc2NC1C1CC=CCC1 (centres undefined) | 88
CCOc1ccc(NC(=O)C(C)NS(=O)(=O)c2ccc(C)cc2)cc1 (centres undefined) | 101
CN(c1ccc(C(=O)NC2CCCCC2)cc1)S(C)(=O)=O | 95
CCOC(=O)c1cc(C)[nH]c(=O)n1 | 86
N#CCCn1cc(/C=N/O)c(-c2ccc(Br)cc2)n1 | 100
Cc1ccc2cc(CCNC(=O)C(C)(C)C)c(=O)[nH]c2c1 | 96
O=C(/C=C/c1ccco1)Nc1ccc2oc(-c3ccccc3)nc2c1 | 97
O=C(CC1NC2CCCCC2NC1=O)Nc1cccc(C(F)(F)F)c1 (centres undefined) | 83
CC(=O)Nc1ccc(/C=N/NC(=O)CN2CCSCC2)cc1 | 91
CN1C(=O)C2C(c3ccc(N(C)C)cc3)NN(Cc3ccccc3)C2C1=O (centres undefined) | 91
COCCNC(=O)c1ccccc1NC(=O)c1cccc(C)c1 | 94
CCC(=O)Nc1ccc2nc(C)[nH]c2c1 | 93
CC(=O)OC[C@H]1O[C@@H](Oc2ccccc2)[C@H](OC(C)=O)[C@@H](OC(C)=O)[C@H]1OC(C)=O | 94
O=C(COc1ccccc1)Nc1ccn(Cc2ccccc2)n1 | 94
CC(C)C(=O)Nc1ccc2[nH]c(=O)[nH]c2c1 | 89
C(=NN1CCN(C2c3ccccc3-c3ccccc32)CC1)c1ccncc1 | 93
C#CCn1c(C2CC(=O)N(c3ccccc3Br)C2)nc2ccccc21 (centres undefined) | 108
CCCc1cc(=O)n2c(-c3ccc(Cl)cc3)csc2n1 | 98
O=C1CCC(=O)N1c1ccc(S(=O)(=O)N2CCN(c3nccc(C(F)(F)F)n3)CC2)cc1 | 87

A section taken from the entries so far:
SMILES | RVFV N-RNA inh
C(=NN1CCN(C2c3ccccc3-c3ccccc32)CC1)c1ccncc1 | 93
C#CCn1c(C2CC(=O)N(c3ccccc3Br)C2)nc2ccccc21 (centres undefined) | 108
CCCc1cc(=O)n2c(-c3ccc(Cl)cc3)csc2n1 | 98
O=C1CCC(=O)N1c1ccc(S(=O)(=O)N2CCN(c3nccc(C(F)(F)F)n3)CC2)cc1 | 87

(more compounds)
SMILES | RVFV N-RNA inh
COc1cc(/C=C2\C(=O)NC(=O)N(C(C)(C)C)C2=O)cc(OC)c1O | 111
NC(=S)N1CCN=C1c1ccccc1 | 91
c1ccc(CCSc2nnc(-c3cccs3)o2)cc1 | 101
CC(C)NC(=S)N1CCN(C/C=C/c2ccccc2)CC1 | 104
CC(C)C1CC(CCN2C(=O)CCC2=O)(c2ccccc2)CCO1 (centres undefined) | 99
CCC(=O)Nc1cccc(-c2cnc3ccccc3n2)c1 | 93
CCOC(=O)CSc1nnc(Cc2ccc(Cl)cc2)c(=O)[nH]1 | 101
N=S(=O)(O)Cc1noc2ccccc12 | 96
COc1ccc(OCC2NCCc3cc(OC)c(OC)cc32)cc1 (centres undefined) | 94
CC1CC2C3CCC4=CC(=O)C=C[C@]4(C)[C@@]3(F)[C@@H](O)C[C@]2(C)[C@@]1(O)C(=O)CO (some centres undefined) | 97
COc1ccc(-c2[nH]ncc2CN2CCC(O)(c3ccc(Cl)cc3)CC2)cc1 | 97
COCC(=O)NC(c1ccccc1)c1ccccc1 | 97
N=C(N)SCCc1cnc[nH]1 | 109
COc1ccc(NS(=O)(=O)c2ccc3oc4ccccc4c3c2)cc1OC | 97
N#CC1=C(Nc2ccc(Br)cc2)CCC1 | 98
C=COCC(F)(F)F | 99
CCC1(C)Cc2c(C#N)c(N)n(N)c(=S)c2CO1 (centres undefined) | 95
CN(C)S(=O)(=O)N(CC(N)=O)c1ccccc1 | 96
O=C(CSCc1cccc(Br)c1)N/N=C/c1ccco1 | 96
CCOC(=O)N1CCN(C(=O)Cn2cnc3c(cnn3-c3ccc(C)cc3C)c2=O)CC1 | 97
Cc1cccc(S(=O)(=O)NCc2ccco2)c1 | 86
O=C(CSc1cn(Cc2ccccc2)c2ccccc12)Nc1nccs1 | 91
CCN(Cc1ccccc1)Cc1cc(Cl)ccc1O | 90
COc1ccccc1Nc1nn(-c2ccccc2)c2c1C(=O)CCC2 | 94
CCc1ccc(C=Nc2ccc(O)cc2)s1 | 98

Structural class, the entries above containing a cyano group
SMILES | RVFV N-RNA inh
N#C/C(=N/Nc1ccc2c(c1)OCO2)C(=O)N1CCCC1 | 103
CC(=O)Oc1cccc2ccc(C#N)nc12 | 99
CC1=C(C#N)C(c2ccc3c(c2)OCO3)C2=C(CCCC2=O)N1 (centres undefined) | 96
N#Cc1c(Cl)cccc1I | 98
CCO/C=N/c1oc(-c2ccccc2)nc1C#N | 99
N#CCCn1cc(/C=N/O)c(-c2ccc(Br)cc2)n1 | 100
N#CC1=C(Nc2ccc(Br)cc2)CCC1 | 98
CCC1(C)Cc2c(C#N)c(N)n(N)c(=S)c2CO1 (centres undefined) | 95

Ordered by length of the SMILES (rising): 3 of the compounds above
SMILES | RVFV N-RNA inh
N#CC1=C(Nc2ccc(Br)cc2)CCC1 | 98
CCC(=O)Nc1cccc(-c2cnc3ccccc3n2)c1 | 93
CC(C)NC(=S)N1CCN(C/C=C/c2ccccc2)CC1 | 104

The list continues.
SMILES | RVFV N-RNA inh
Cc1cccc(-n2c(=O)c3c4c(sc3n3c(=S)[nH]nc23)CCC4)c1 | 98
Nc1ccn([C@@H]2CS[C@H](CO)O2)c(=O)n1 | 95&94
CN1CCCCC1c1cccnc1N (centres undefined) | 102
NC(=O)C1CCCN1S(=O)(=O)c1ccc2ccccc2c1 (centres undefined) | 92
O=C1CC(=O)N(c2ccccc2)C(=O)N1 | 91
CC(C)(C)NS(=O)(=O)c1cccc2c(N)cccc12 | 100
CCOC(=O)c1ccc(CNC(=O)CSc2nnc(-c3ccc(OC)cc3)o2)cc1 | 92
CCN(c1cccc(C)c1)S(=O)(=O)c1ccc(OC)cc1 | 94
CCNC(=O)[C@H]1O[C@@H](n2cnc3c(N)nc(NCCc4ccc(CCC(=O)O)cc4)nc32)C(O)[C@H]1O (some centres undefined) | 108
COc1ccccc1N1CCN(C(=O)c2ccc(S(=O)(=O)N3CCCCC3)cc2)CC1 | 96
CCOc1cccc(CNc2ccc(N3CCCC3)cc2)c1 | 111
CCOC(=O)c1cc(-c2csc(Nc3ccc(C)cc3)n2)on1 | 94
CCCN1C=C(C(=O)OC)C(c2cccc(Cl)c2)C(C(=O)OC)=C1 | 95
NS(=O)(=O)c1ccc(CNC(=O)c2ccccc2)s1 | 101

Source: PubChem (ICCB-Longwood Screening Facility, Harvard Medical School)
